Source: PubChem BioAssay (several laboratories)
FGF22 binding = binders of human FGF22 protein, primary screen, FGF22 synaptogenesis inhibitor project, biophysical, thermal shift, single point; 1.5% of 340,000 active; AID 651658, 2012; calls only at 9.99 µM; Fibroblast growth factor 22 (Homo sapiens), Q9HCT0; recombinant FGF22 thermal shift, SYPRO orange fluorescence; percent of sucrose octasulfate shift, DMSO zero;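 active = melting point raised past a set limit in the mean and every replicate; inconclusive = no clear call; three in four hits are not shown here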
Target sequence (Q9HCT0 whole entry, looked up): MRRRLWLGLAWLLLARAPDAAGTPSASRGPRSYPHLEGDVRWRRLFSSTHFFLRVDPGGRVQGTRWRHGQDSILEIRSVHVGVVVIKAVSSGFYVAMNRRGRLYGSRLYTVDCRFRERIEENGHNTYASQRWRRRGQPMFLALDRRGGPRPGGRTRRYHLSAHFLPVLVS
ALR inh = inhibitors of human ALR sulfhydryl oxidase, primary screen, biochemical, H2O2 detection, HRP-luminol luminescence, single point; FAD-linked sulfhydryl oxidase ALR (Homo sapiens), P55789; purified ALR, DTT oxidation; inhibition, % (no concentration beside the values); 3.8% of 290,000 active;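 active = mean and each replicate at 75% or more; inconclusive = only one of the two met; inactive = neither met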;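 note: stock transfer was 7.5 nL into about 7.5 µL; 0% = neutral wells and 100% = wells with inactivated enzyme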
Target sequence (P55789 whole entry, looked up): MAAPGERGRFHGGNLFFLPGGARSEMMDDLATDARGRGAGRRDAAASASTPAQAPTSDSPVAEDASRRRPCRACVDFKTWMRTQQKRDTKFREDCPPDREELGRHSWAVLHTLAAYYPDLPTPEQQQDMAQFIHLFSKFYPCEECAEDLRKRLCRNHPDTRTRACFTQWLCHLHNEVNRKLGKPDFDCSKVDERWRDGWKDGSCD
rRNA inh HTS = reduced GFP signal of wild-type E. coli, primary screen, bacterial rRNA inhibitor project, GFP/RFP fluorescence, OD600, single point; E. coli WT GFP vs humanized-ribosome RFP mutants, 24 h; hits give low values; DMSO median 0, no signal -100; GFP signal change (wild-type ribosome), % (no concentration beside the values); 1.6% of 350,000 active;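 active = significant combined selectivity score with lowered wild-type GFP, culture density cut under 30%, mutant RFP and density less affected; inactive = any of these conditions unmet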; note: one replicate is shown; some compounds called inactive have numbers as strong as hits
Vif A3G = inhibitors of Vif binding to APOBEC3G peptide, primary screen, biochemical, TR-FRET, GST-Vif 1-94, biotin-A3G peptide, dose response retest (AID 1117319). Virion infectivity factor (Human immunodeficiency virus type 1 group M subtype B (isolate …. TR-FRET GST-Vif / biotin-A3G peptide binding; higher % means a stronger effect; test concentration not given here; strong numbers were not always called active. inhibition, %; hits with a dose series show IC50 in µM. 0.57% of 260,000 active;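 active = above the screen mean plus three standard deviations and confirmed in dose response; inconclusive = results disagree or hit not tested in dose response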;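 note: Vif residues 1-94 fused to GST binding biotinylated APOBEC3G peptide 110-148; 0% = full assay without inhibitor and 100% = GST in place of GST-Vif; retest series ran down from 100 µM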
Ecoli growth = E. coli growth inhibition, primary screen, OD600; Escherichia coli growth, 23 h; hits give low values; OD600 absorbance (no concentration beside the values); 0.21% of 330,000 active; AID 1053175, 2014;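 active = OD600 absorbance below the run mean of sample wells minus 3.6 SD, in any replicate, cut at about 0.56 in these data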;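 note: stock transfer was 300 nL into about 60 µL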
AF4-AF9 inh = inhibitors of AF4 peptide binding to AF9, primary screen, biochemical, AlphaScreen, biotin-AF4 peptide, FLAG-AF9, single point; inhibition, % at 10 µM; 0.47% of 350,000 active;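 active = every replicate reaching a set inhibition limit, whatever the replicate mean, cut at about 25% in these data; inconclusive = mean inhibition reaches that limit but some replicates miss it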;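 note: 0% = plate neutral control median and 100% = total signal loss; the record names both 10 and 1 µM as test concentration; the first replicate is given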
HNF4A DNA FP = change in binding of human HNF4A to DNA, primary screen, biochemical, fluorescence polarization, FITC-DNA; 1 h; activity change, % at 10 µM; 0.3% of 360,000 active; Hepatocyte nuclear factor 4-alpha (Homo sapiens), P41235; in the data active = activity change above about 30%, passing the limit was not always enough;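 note: controls were the assay level and a saturating level of protein; the project sought stronger binding though the title names inhibitors; some compounds called inactive have numbers as strong as hits; positive values seem to mean higher polarization but the record does not say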
Target sequence (P41235 whole entry, looked up): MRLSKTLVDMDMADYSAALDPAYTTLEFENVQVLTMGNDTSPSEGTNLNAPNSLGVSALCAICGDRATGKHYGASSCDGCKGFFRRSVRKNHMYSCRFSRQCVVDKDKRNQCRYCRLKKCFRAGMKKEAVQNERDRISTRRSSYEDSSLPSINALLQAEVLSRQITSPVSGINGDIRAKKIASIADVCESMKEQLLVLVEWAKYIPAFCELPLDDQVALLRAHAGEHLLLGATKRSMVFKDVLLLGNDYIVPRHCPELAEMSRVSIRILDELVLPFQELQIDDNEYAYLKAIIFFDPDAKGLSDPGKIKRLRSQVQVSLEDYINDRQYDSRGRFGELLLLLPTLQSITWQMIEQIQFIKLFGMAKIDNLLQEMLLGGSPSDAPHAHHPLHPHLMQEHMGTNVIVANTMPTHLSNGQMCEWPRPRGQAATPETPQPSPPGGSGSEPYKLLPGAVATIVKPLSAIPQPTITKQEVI
rRNA inh HTS OD600 = further read-out of rRNA inh HTS, marked with its call; OD600 change, %; measured here: OD600 growth;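 optical density of the mix in the first replicate; 0 = DMSO median and -100 = no signal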
rRNA inh HTS RFP = second read-out of rRNA inh HTS, no call of its own (marks repeat the call); RFP signal change, %; measured here: RFP humanized mutant strains;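 first replicate; 0 = DMSO median and -100 = no signal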
* hit, by the source's call; i = inactive; ? = inconclusive; . = no result given. This is a subset. The share of hits here may be higher or lower than overall.

SMILES	FGF22 binding	ALR inh	rRNA inh HTS	rRNA inh HTS OD600	rRNA inh HTS RFP	Vif A3G	Ecoli growth	AF4-AF9 inh	HNF4A DNA FP
O=C(CN1C(=O)c2cccc([N+](=O)[O-])c2C1=O)NCc1ccccc1	i	-53.5	18.6	15.9	4.4	-6.0%	0.685	-0.8	-1.6
Cc1ccc(C(=O)C2CCN(C(=O)c3ccc(C)cc3)CC2)cc1	i	-5.9	-15.7	-33.5	-1.5	-0.8%	0.65	0.7	-1.8
COc1ccc(NC(=O)Nc2cccc3c2O[C@@H](CN(C)S(=O)(=O)c2ccccc2)[C@@H](C)CN([C@H](C)CO)C3=O)cc1	i	.	-4.0	-4.9	-1.7	.	.	3.5	.
O=C(c1ccc2ccccc2c1)N1CCCCC1	i	.	13.0	3.5	0.8	-1.9%	0.714	-0.3	-1.3
Cc1cccc(CS(=O)(=O)Cc2ccc(C(=O)NCCCN3CCCC3)o2)c1	.	-1.5	.	.	.	-2.1%	0.762	.	2.9
Cc1ccc(CNC(=O)C2CCCN(c3nc4ccsc4c(=O)s3)C2)cc1 (configuration not stated)	i	2.9	7.2	2.3	0.3	-4.7%	0.725	1.3	1.6
COc1ccc(CNC(=O)c2cc3c(=O)n4cccc(C)c4nc3n(CC3CCCO3)c2=N)cc1 (configuration not stated)	i	-2.3	11.8	8.4	2.8	.	0.697	-3.0	-1.4
CCOC(=O)C(C)Sc1nnc(Cc2cc(=O)[nH]c(=O)[nH]2)n1-c1ccc(Cl)cc1 (configuration not stated)	.	-31.5	.	.	.	2.8%	0.774	.	-8.2
C[C@H](CO)N1C[C@H](C)[C@@H](CN(C)S(=O)(=O)c2ccc(F)cc2)Oc2c(cccc2N(C)C)C1=O	i	.	-7.7	-11.1	4.2	.	.	0.2	.
CN(C)c1nc(C(N)=O)nc(N2CCOCC2)n1	.	-3.7	.	.	.	-2.7%	0.671	.	4.6
OC1(C#CCN2CCCC2)CCCCC1	i	-1.1	11.3	16.5	1.8	-1.0%	0.675	-0.3	0.9
COc1ccc(-c2nc3ncccc3o2)cc1NC(=O)c1cccs1	i	1.4	3.6	39.5	5.3	.	0.668	-1.6	3.0
COc1cc(C(=O)OCC(=O)Nc2sccc2C(N)=O)cc(OC)c1OC	i	.	4.3	7.4	2.7	-30.5%	0.736	-19.4	0.9
CCSc1nc2[nH]ncc2c(=O)[nH]1	.	-2.3	.	.	.	?	0.714	.	1.3
CCC(=O)N1[C@H](CO)[C@@H](c2ccccc2)[C@@H]1CN(C(C)C)S(C)(=O)=O	i	.	3.0	8.8	-3.3	.	.	-2.5	.
CS(=O)(=O)Nc1ccc(C(=O)NC2CCCC2)cc1	.	-3.3	.	.	.	-4.5%	0.682	.	0.3
CC(C)(C)S(=O)(=O)N1Cc2cc(CO)ccc2[C@@H]1CCO	.	.	3.7	19.6	8.6	.	.	-1.7	.
CCOc1ccccc1NC(=O)c1cccc2c1C(=O)N(C1CCCCC1)C2	i	-0.8	-9.5	-15.9	-3.6	-2.0%	0.637	2.4	2.9
C[C@@H]1CCCCO[C@H](CN(C)S(=O)(=O)c2cccs2)[C@@H](C)CN([C@@H](C)CO)C(=O)c2cc(NS(C)(=O)=O)ccc2O1	i	.	-1.7	-2.0	1.5	.	.	-5.2	.
CCCCn1c(N)c(N2CCOCC2)c(=O)n(CC(=O)NCCc2ccccc2)c1=O	i	8.2	17.6	7.4	-0.7	-2.3%	0.71	1.1	-0.8
CCOC(=O)Cn1c(=NC(=O)CC)sc2c(C)cc(C)cc21	i	4.9	8.5	-1.4	-4.9	-2.2%	0.782	-5.6	4.2
COc1ccc(C(=O)NNC(=O)CCn2nnc(-c3ccc(C)cc3)n2)cc1OC	i	-10.2	3.7	-4.5	0.4	-1.1%	0.693	-0.5	1.4
CCOC(=O)Cc1csc(NC(=O)c2cccnc2)n1	.	-1.9	.	.	.	-9.7%	0.694	.	3.6
CCCNC(=O)N1CC2(C1)[C@H](c1ccccc1)[C@H](CO)N2C(=O)C1CCCCC1	i	.	0.0	3.9	-1.4	.	.	-3.7	.
CCOC(=O)C1C(=O)NC(c2ccccc2)=NC1c1ccc(Cl)cc1 (configuration not stated)	.	-5.0	.	.	.	1.8%	0.685	.	-2.0

Next section:
SMILES	FGF22 binding	ALR inh	rRNA inh HTS	rRNA inh HTS OD600	rRNA inh HTS RFP	Vif A3G	Ecoli growth	AF4-AF9 inh	HNF4A DNA FP
Cc1nnc(SCC(=O)Nc2ccccc2C(=O)NC2CC2)s1	.	-4.1	.	.	.	.	0.634	.	0.3
CCN(CC)c1ccc(/C=N/NC(=O)CCC(=O)NCc2ccccc2)c(O)c1	i	.	1.2	-10.5	14.8	-1.9%	.	-1.0	3.0
COc1ccc2c(C(=O)CN3CCSCC3)c[nH]c2c1	i	-3.9	6.1	13.1	-0.2	-0.7%	0.699	-7.7	7.1
Cn1cccc([N+](=O)[O-])c1=O	i	.	10.3	5.2	-2.7	2.1%	.	0.8	3.9
Cc1cc2oc(C(=O)N(Cc3cccs3)C3CCS(=O)(=O)C3)cc(=O)c2cc1Cl (configuration not stated)	i	-22.1	-21.3*	-9.2*	-1.4*	0.9%	0.612	3.7	3.4
CCOc1ccccc1NC(=O)c1ccc([N+](=O)[O-])cc1	.	-2.6	.	.	.	-6.8%	0.656	.	.
O=C(NCC1CCCN1S(=O)(=O)c1cccs1)c1cccc([N+](=O)[O-])c1 (configuration not stated)	i	-2.6	3.6	1.8	-2.5	-1.6%	0.679	-0.1	-2.2
C[C@H]1CN([C@@H](C)CO)C(=O)Cc2cc(NC(=O)CCN3CCOCC3)ccc2O[C@H]1CN(C)C(=O)Nc1ccc(F)cc1	i	.	1.4	-3.4	1.7	.	.	-2.8	.
FC(F)(F)c1nc2ccccc2nc1N/N=C/c1ccc(Cl)cc1	.	-14.4	.	.	.	-4.0%	.	.	-1.0
Cc1ccc(S(=O)(=O)N(C)C[C@H]2OCCCC[C@H](C)Oc3ccc(NC(=O)c4ccccc4)cc3C(=O)N([C@@H](C)CO)C[C@@H]2C)cc1	i	.	2.2	2.6	2.6	.	.	1.6	.
Cc1ccc(CS(=O)(=O)Cc2ccc(C(=O)NCC3CCCO3)o2)cc1 (configuration not stated)	.	.	.	.	.	-0.2%	0.639	.	1.0
COc1ccccc1-c1cnc2c(c1)C(=O)N([C@@H](C)CO)C[C@H](C)[C@@H](CN(C)C(=O)c1ccccc1)O2	i	.	-2.6	3.4	1.9	.	.	-2.8	.
CCOC(=O)N1CCN(S(=O)(=O)N2CCCC(C(=O)NCCCN3CC(C)CC(C)C3)C2)CC1 (configuration not stated)	i	-4.0	4.0	22.2	5.0	.	0.635	-0.2	4.1
O=C(c1cnn(-c2ccccc2)c1)c1cc(Br)ccc1O	i	.	11.1	10.6	8.6	-5.5%	0.711	-2.4	-0.7
N#Cc1ccccc1CSc1nnc(-c2ccncc2)o1	.	-23.5	9.5	12.4	2.9	-0.8%	0.688	.	3.3
Cc1ccc(Cl)cc1NC(=O)CCS(=O)(=O)c1ccc2c(c1)n(C)c(=O)c(=O)n2C	i	.	4.5	1.9	-2.5	-35.5%	.	-1.3	0.0
C[C@@H]1CN([C@H](C)CO)C(=O)c2cccc(NC(=O)Nc3ccc(F)cc3)c2O[C@H]1CN(C)S(=O)(=O)c1cccs1	i	.	-0.9	4.5	0.3	.	.	-4.0	.
CCCNC(=O)N[C@@H]1C=C[C@@H](CC(=O)NC2CCCCC2)O[C@H]1CO	i	.	0.1	-1.9	0.4	.	.	-1.4	.
CCN(C(=O)Cn1cnc2cc([N+](=O)[O-])ccc2c1=O)C1CCS(=O)(=O)C1 (configuration not stated)	.	.	21.4	23.4	1.7	6.3%	0.692	0.9	-1.3
CC(/C=C/c1ccco1)=N/NC(=O)c1ccc(C)nc1	i	-4.4	2.7	4.7	2.7	1.8%	.	-0.1	0.9
COc1ccc(C(c2nnnn2C(C)C)N2CCN(C(=O)c3ccco3)CC2)cc1 (configuration not stated)	i	-1.1	2.1	-0.8	0.1	.	0.684	0.5	-0.9
Cc1[nH]nc(N)c1-c1ccc(Cl)cc1	i	6.6	-6.9	-2.5	-6.4	4.6%	0.695	-0.2	2.6
Cc1cc(C)nc(NC(=O)/C=C/c2cccs2)c1	i	-1.2	-26.6*	-20.9*	-6.6*	12.0%	0.647	-37.3	0.1
CC1=C(C(N)=O)C(c2ccc(C)o2)C(C(N)=O)=C(C)N1	.	0.9	.	.	.	1.6%	0.718	.	0.4
Cc1ccccc1CN1CCCC(C(=O)Nc2ccc(-c3ccn[nH]3)cc2)C1 (configuration not stated)	i	0.6	-3.8	4.5	1.0	.	0.721	-2.2	0.5

Next part (2 carried over from the part before).
SMILES	FGF22 binding	ALR inh	rRNA inh HTS	rRNA inh HTS OD600	rRNA inh HTS RFP	Vif A3G	Ecoli growth	AF4-AF9 inh	HNF4A DNA FP
CC1=C(C(N)=O)C(c2ccc(C)o2)C(C(N)=O)=C(C)N1	.	0.9	.	.	.	1.6%	0.718	.	0.4
Cc1ccccc1CN1CCCC(C(=O)Nc2ccc(-c3ccn[nH]3)cc2)C1 (configuration not stated)	i	0.6	-3.8	4.5	1.0	.	0.721	-2.2	0.5
Cc1cc2c(=O)n(Cc3ccco3)c(SCC(=O)N3CCCc4ccccc43)nc2s1	i	-8.1	-1.5	-5.4	3.9	-2.2%	0.748	-49.5	3.7
COc1ccc(-c2cc(=O)oc3c(O)c(O)ccc23)cc1	i	98.5*	-15.9	-55.0	-5.3	.	0.664	2.2	-11.4
CC(C)NC(=O)Nc1ccc2c(c1)C(=O)N([C@H](C)CO)C[C@@H](C)[C@H](CN(C)Cc1ccc(-c3ccccc3)cc1)O2	i	.	-7.4	-49.4	30.2	.	.	11.2	.
C[C@H](CO)N1C[C@H](C)[C@H](CN(C)Cc2ccncc2)Oc2ccc(NC(=O)c3ccncc3)cc2CC1=O	i	.	0.9	2.6	-3.3	.	.	-0.9	.
COc1cc(SC)ccc1C(=O)Nc1ccccc1C#N	.	.	.	.	.	-11.2%	0.716	.	1.0
CO[C@@H]1CN(C)C(=O)c2cc(NC(=O)C3CC3)ccc2OC[C@H](C)N(Cc2ccccc2)C[C@H]1C	i	.	1.1	-19.6	2.9	.	.	2.4	.
CSc1ccc(CCCCCCOC(=O)C(C)(C)C)cc1	i	-5.5	-6.3	-2.2	-10.8	.	0.662	-0.4	3.7
Cc1noc(C)c1NC(=O)Nc1ccc2c(c1)CC(=O)N([C@H](C)CO)C[C@H](C)[C@H](CN(C)C(=O)Nc1ccc3c(c1)OCO3)O2	i	.	-0.2	0.6	-1.3	.	.	-1.0	.
CCCC1Cc2nc(N3CCCCC3)c(C#N)cc2CO1 (configuration not stated)	i	-0.9	-41.7	-48.5	-16.7	21.7%	0.724	-2.0	-4.4
CCSc1nc(O)c(CC)c(=O)n1C(C)CC (configuration not stated)	.	17.6	.	.	.	9.7%	0.69	.	4.8
CCOc1cc(OCC)cc(C(=O)N2CCC[C@H]2C(=O)N2CCC[C@H]2C(=O)N[C@H](C)c2ccccc2)c1	i	.	-1.5	0.6	-1.3	.	.	-4.6	-1.9
O=C1C=C(c2cc3ccccc3s2)C[C@@H](c2ccc(Cl)cc2)C1	i	-1.6	5.5	10.9	-0.5	.	.	-0.7	-2.3
